From PubChem
Calb biofilm kill: clotrimazole potentiators killing C. albicans biofilm, primary screen, 4-compound mixtures; C. albicans biofilm persisters + clotrimazole, fluorescence viability; primary screen in compound mixtures of four per well; inhibition, % at 7.6 µM; 120,000 tested, 0.02% active; AID 1242, 2008;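 active = inhibition above 30.3% in the primary screen of four-compound pools, then above 30% when the compound was retested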;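 note: compounds exposed to preformed 24 h biofilms for 48 h; the number belongs to the whole pool; some results filed as inactive read as strong as hits; inactives centre near 12; 0% = biofilm with clotrimazole alone and 100% = kill control; retested singly at about 60 µM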
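Probe or stimulus – Clotrimazole 50 µg/mL co-treatment · System – C. albicans biofilms · Schedule – 24 h biofilm formation, then 48 h compound exposure, 37 °C · Evaluation – percent inhibition of biofilm viability · Technique – 2-h Alamar Blue fluorescence, 535/590 nm excitation/emission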
Active calls of the source: *.

SMILES	Calb biofilm kill
COc1ccccc1NC1(C#N)CCCCC1	12
O=[N+]([O-])c1cc(F)c(N2CCCC2)cc1Br	-1
O=C(c1ccc(C(F)(F)F)cc1)C1CCCN(C2CCSCC2)C1 (stereo not given)	8
CN(C)CC1CCCCC1=O (stereo not given)	24
COc1c(C)cc(C(=O)C2CCCN(Cc3cccc(C)n3)C2)cc1C (stereo not given)	23
CC(NC(C)(C)C)C(=O)c1cccc(Cl)c1 (stereo not given)	-6
O=C(O)C1C2CC3CC(C2)CC1(n1ncc(N2CCC4(CC2)OCCO4)c(Cl)c1=O)C3 (stereo not given)	34
CCN(CC)P(=S)(c1c(C)nc2ccccn12)c1c(C)nc2ccccn12	10
Cc1cccc(-n2c(O)c(/C=C3/C(c4ccccc4)=Nc4ccccc43)c(=O)[nH]c2=O)c1	17
FCCN(CCF)c1cccc(Cl)c1	20
CCOc1cc(/C=C2\C(=O)NC(=O)N(C)C2=O)cc([N+](=O)[O-])c1O	14
C=C1C[C@]2(O)[C@@]3(C)CCC(=O)C(C)(C)C3=C(O)C(=O)[C@@]2(C)[C@@H]2C(=O)O[C@@](C)(C(=O)OC)C(=O)[C@@]12C	22
O=C1OC(c2ccc(Br)cc2)=N/C1=C\N1CC2CC(C1)c1cccc(=O)n1C2 (stereo not given)	25
CN(C)CCNC(=O)c1cccn(Cc2cccc(C(F)(F)F)c2)c1=O	3
O=P(Nc1ccccc1)(Oc1ccccc1)Oc1ccccc1	11
COC(=O)c1ccc(C(C(=O)NC2CCCCC2)N(CCN2CCOCC2)C(=O)Cc2cccs2)cc1 (stereo not given)	7
C=CCn1c(O)c(C(CC)=Nc2cccc(C(F)(F)F)c2)c(=O)[nH]c1=O	7
COc1ccc2c3c([nH]c2c1)C(C)NCC3 (stereo not given)	21
CC(=O)Nc1ccc(C2CN(C)CC2C(=O)c2ccc(Cl)cc2)cc1 (stereo not given)	14
CC(N=Cc1c(O)n(C2CC2)c(=S)[nH]c1=O)c1ccccc1 (stereo not given)	28
COc1ccc(-c2[nH]ncc2CNC(C)Cc2ccsc2)c(F)c1 (stereo not given)	18
Cc1ccccc1NC(=O)c1cc(-c2ccccc2)n(CCCN2CCOCC2)c1C	16
CCOc1ccc2c(c1)c(C(C)=O)c(C)n2Cc1ccco1	4
CCC(C)N1C(=O)/C(=C/c2ccc3c(c2)CCN3CCCCl)C(=O)NC1=S (stereo not given)	16
O=c1[nH]c(=O)n(-c2ccc(Br)cc2)c(O)c1C=NCCN1CCCCC1	8
CN1c2ccccc2Oc2ccccc21	12
O=[N+]([O-])c1ccc(N2CCNCC2)cc1N1CCCCC1	6
COc1ccc(C2c3c(nc(C)[nH]c3=O)Oc3c2c(=O)oc2ccccc32)cc1 (stereo not given)	28
CC(C)Cc1nnc(NC(=O)CCC(=O)N2CCC3(CC2)OCCO3)s1	14
CN(C)P(=O)(NC(=O)c1cccn1C)N(C)C	7
Nc1cc2nc3ccccc3nc2cc1N	10
NC(N)=N/N=C/c1cn(-c2ccccc2)nc1-c1cccs1	8
Cc1ccc(OCC(=O)N2CCN(Cc3cccnc3)CC2)cc1	8
CSc1ccc(C(=O)C2CCCN(Cc3cnc(SC)nc3)C2)cc1 (stereo not given)	16
CC/C(=N\NC(=O)c1ccccc1)c1c(O)n(Cc2ccccc2)c(=O)[nH]c1=O	12
COc1ccc(N2C(=O)NC(=O)/C(=C\c3ccccc3[N+](=O)[O-])C2=O)cc1	20
COc1ccc(OCC(=O)N2CCN(C/C=C/c3ccccc3)CC2)cc1	21
COc1ccc(C(=O)N/N=C/C23CC[C@@H](O)CC2(O)CC[C@@H]2[C@@H]3CCC3(C)C(C4=CC(=O)OC4)CCC23O)cc1 (stereo not given in full)	13
CCn1ccnc1CN1CCCC(C(=O)c2cc(F)ccc2OC)C1 (stereo not given)	11
O=C1NC(=O)N(c2ccccc2)C(=O)/C1=C/c1coc2ccc(O)cc2c1=O	11
c1ccc(Cn2ccnc2)cc1	0
COc1ccc(C(=O)C2CCCN(C3CSCCSC3)C2)c(C)c1 (stereo not given)	6
CN(C)CCN=Cc1c(O)n(Cc2ccc3c(c2)OCO3)c(=S)[nH]c1=O	20
COc1cc(/C=C2/C(=O)NC(=O)N(c3ccccc3)C2=O)ccc1O	8
O=C(NC(=O)N1CCC2(CC1)OCCO2)c1ccc(Cl)cc1	6
CCn1c(O)c(/C(C)=N/N2CCCCC2c2cccnc2)c(=O)[nH]c1=S (stereo not given)	10
O=C(COC(=O)Cc1ccccc1)Nc1ccc(SC(F)F)cc1	12
COc1ccc(NC(=O)c2cn(CCC#N)nc2-c2cccc([N+](=O)[O-])c2)cc1	21
COc1ccccc1C1=NCc2nnc(C)n2-c2ccc(Cl)cc21	6
COc1ccc(C2=NCC(=S)Nc3ccc(Cl)cc32)cc1Cl	25
COc1cc(C(=S)N2CCOCC2)cc(OC)c1OC(=O)Cc1ccccc1	5
Cc1ccc2c(c1)=C/C(=C\c1c(O)[nH]c(=S)[nH]c1=O)C(=O)N=2	23
Cc1ccsc1C(=O)C1CCCN(Cc2ccccc2O)C1 (stereo not given)	5
O=C(O)c1ccc2c(c1)C1C(Cl)C(Sc3ccccc3[N+](=O)[O-])CC1C(c1cccc([N+](=O)[O-])c1)N2 (stereo not given)	12
O=C(COc1ccc(Cl)cc1)N1CCN(Cc2ccc([N+](=O)[O-])cc2)CC1	13
CC(C)(CN)CC(=O)O	10
CC(C(=O)c1c[nH]c2ccccc12)N1CCOCC1 (stereo not given)	21
Cc1cc(OC(=O)N(C)C)nc2c1c(C)nn2C	15
COP(=O)(OC)Oc1ccc(C(O)C(Cl)(Cl)Cl)cc1 (stereo not given)	34
COc1c(C)cc(C(=O)C2CCCN(Cc3ccccn3)C2)cc1C (stereo not given)	8

Next compounds follow.
SMILES	Calb biofilm kill
CC1=C2C3OC(=O)C(C)C3CC[C@@]2(C)C=CC1=O (stereo not given in full)	15
CCNCCNc1ccc([N+](=O)[O-])c2cccnc12	17
CC(=O)N1CN2CN(C1)CN(C(C)=O)C2	3
Cc1ccc(S(=O)(=O)N(C)C)cc1NC(=O)C(C)[N+]12CCN(CC1)CC2 (stereo not given)	15
CN(C)C(=O)Oc1ccc(OCc2cccc[n+]2C)cc1	4
COc1cccc(CNCCc2ccccc2)c1OC	15
CC(=O)c1ccc2c(c1)C1C(Cl)C(Sc3ccccc3[N+](=O)[O-])CC1C(C(=O)O)N2 (stereo not given)	13
CSc1ccc(C(=O)C2CCCN(CCCn3cccn3)C2)cc1 (stereo not given)	7
CCCCC(=O)N/N=C/c1c(O)n(CC)c(=S)[nH]c1=O	11
O=C(Cc1ccc(Cl)c(Cl)c1)NCC1(N2CCOCC2)CCCCC1	6
C[N+]12CCC(CC1)C(=C(c1ccccc1)c1ccccc1)C2	10
CCC(=NCc1ccco1)c1c(O)n(C)c(=O)n(C)c1=O	25
Cc1ccc2c(c1)C1CN(C)CCC1N2C(=O)CCCN1C(=O)c2cccc3cccc(c23)C1=O (stereo not given)	3
N#CC12CNCC1CN=N2 (stereo not given)	5
COc1ccc(N=Nc2c(O)[nH]c(=S)[nH]c2=O)cc1	21
CN1CCN(c2ccc([N+](=O)[O-])c(Sc3ccccn3)c2)CC1	13
Cc1cc(=O)[nH]c(CCl)n1	17
COc1ccc(OC)c(N2Cc3ccccc3C2=N)c1	19
COc1ccc(-c2csc(NC(=O)COC(=O)Cc3ccccc3)n2)cc1OC	11
CCC1(CC)C(=N)N(C)C(=O)NC1=O	11
O=C1N(c2ccc(Cl)cc2)C(c2cccnc2)N2CCCN12 (stereo not given)	17
CCC(=O)c1ccc(OC(=O)N(C)c2ccccc2)cc1	9
O=C1NC(=O)N(CCc2ccc(F)cc2)C(=O)/C1=C\C=C\c1ccccc1	11
Cn1c(O)c(C=NC2CCCCC2)c(=O)[nH]c1=S	11
c1csc(CN2CCNCC2)c1	3
Cc1oc(-c2ccccc2)nc1CN1C(=O)CN=C(c2ccccc2)c2ccccc21	8
COc1ccc(/C=C2/C(=O)NC(=S)N(C3CC3)C2=O)cc1CN1C(=O)c2ccccc2C1=O	10
C(CCc1nn[nH]n1)CCc1nn[nH]n1	8
O=C1CCN(C(=O)Cc2ccccc2[N+](=O)[O-])CC1	2
C=C1C(=O)O[C@@H]2C[C@@H](C)[C@H]3C=CC(=O)[C@]3(O)C[C@@H]12	14

Random excerpt: 6 records from the list.
SMILES	Calb biofilm kill
CC(=O)N1CN2CN(C1)CN(C(C)=O)C2	3
O=C(COc1ccc(Cl)cc1)N1CCN(Cc2ccc([N+](=O)[O-])cc2)CC1	13
c1csc(CN2CCNCC2)c1	3
COc1ccc(/C=C2/C(=O)NC(=S)N(C3CC3)C2=O)cc1CN1C(=O)c2ccccc2C1=O	10
CN(C)CC1CCCCC1=O (stereo not given)	24
COc1cc(/C=C2/C(=O)NC(=O)N(c3ccccc3)C2=O)ccc1O	8

Some of the entries so far, bar-delimited.
SMILES | Calb biofilm kill
Cc1cc(=O)[nH]c(CCl)n1 | 17
C(CCc1nn[nH]n1)CCc1nn[nH]n1 | 8
CN1CCN(c2ccc([N+](=O)[O-])c(Sc3ccccn3)c2)CC1 | 13

Entries above that contain a thiophene ring, fused or not, in the order listed:
SMILES	Calb biofilm kill
COC(=O)c1ccc(C(C(=O)NC2CCCCC2)N(CCN2CCOCC2)C(=O)Cc2cccs2)cc1 (stereo not given)	7
COc1ccc(-c2[nH]ncc2CNC(C)Cc2ccsc2)c(F)c1 (stereo not given)	18
NC(N)=N/N=C/c1cn(-c2ccccc2)nc1-c1cccs1	8
Cc1ccsc1C(=O)C1CCCN(Cc2ccccc2O)C1 (stereo not given)	5
c1csc(CN2CCNCC2)c1	3

The results go on.
SMILES	Calb biofilm kill
O=[N+]([O-])c1ccc(NCc2ccccc2)c2nonc12	12
CCC(=Nc1cccc(C(F)(F)F)c1)c1c(O)n(C)c(=O)n(C)c1=O	8
C/C(=N\NC(=O)c1ccccc1)c1c(O)n(Cc2ccccc2)c(=O)[nH]c1=O	-5
CNC(=O)Oc1ccc2ncccc2c1	8
CNS(=O)(=O)c1ccc(N=Cc2c(O)n(-c3ccc(C)cc3)c(=O)[nH]c2=O)cc1	11
CN1CCN(c2nc(Cl)ncc2F)CC1	12
Cc1cccc(NC(=O)N2CCCC2)c1	8
CCOC(=O)C1CCCN(c2ccc([N+](=O)[O-])c3nonc23)C1 (stereo not given)	15
O=C1NC(=O)C(C(CC(=O)c2ccccc2)c2ccccc2)C(=O)N1 (stereo not given)	19
NC1=C([N+](=O)[O-])C(c2ccc3c(c2)OCO3)c2c(c3ccccc3oc2=O)O1 (stereo not given)	22
Cc1ccc(N2C(=O)NC(=O)/C(=C\c3ccoc3)C2=O)cc1	10
Cc1ccc(-c2cc(-c3ccc(C)cc3)[n+](C)o2)cc1	6
C/C(=N\N1CCCCCC1)c1c(O)n(C)c(=O)n(C)c1=O	19
Cc1cc(/C=C2\C(=O)NC(=O)N(Cc3ccccc3Cl)C2=O)c(C)n1-c1ccc(C(=O)O)cc1	6
CC(=O)NC1C(OC(=O)Cc2ccccc2)OC(COC(C)=O)C(OC(C)=O)C1OC(C)=O (stereo not given)	12
Cn1c(O)c(/C=C/C=Nc2ccccc2)c(=O)n(C)c1=O	13
O=C(COC(=O)Cc1ccccc1)Nc1ccc(Cl)cn1	0
Cc1nc(SCc2c(Cl)cccc2Cl)nc(OC(=O)N(C)C)c1C	14
Cc1ccc(S(=O)(=O)N2CC2(C)CCl)cc1 (stereo not given)	14
C[N+]1(C)C2CCC1CC(OC(=O)c1ccco1)C2 (stereo not given)	13
CC[N+](CC)(CC)CC	-4
COc1ccc(N=Cc2c(O)n(Cc3cccs3)c(=O)[nH]c2=O)cc1	13
Cc1ccc(OCC(=O)N2CCN(Cc3ccc([N+](=O)[O-])cc3)CC2)cc1	9
CN(C)C(=O)Oc1cc(=O)n2c3c(cccc13)CCC2	19
N#CC(C#N)=Cc1ccc(N2CCCC2)cc1	18
COc1ccc(N=C2SCCCN2C)cc1	13
CN(C)CC1CSCCC1(O)c1ccccc1 (stereo not given)	5
CCc1cc(=O)[nH]c(SCCCF)n1	-6
C=CCn1c(O)c(C(CC)=NCC2CCCO2)c(=O)[nH]c1=O (stereo not given)	18
CC(=NCc1ccco1)c1c(O)n(-c2ccc(C)cc2)c(=O)[nH]c1=O	13
COc1ccc(CNC(=O)C(NC(C)=O)C(C)C)cc1OC (stereo not given)	13
c1cc2c(cc1CCNC1CCCCCC1)OCO2	15
C[N+]1(C)CCN(c2ccccc2)CC1	15
CC(C)CN1CCN(Cc2ccc(C(F)(F)F)cc2)CC1CCO (stereo not given)	10
Cc1ccc2c(c1)C1CN(C)CCC1N2C(=O)/C=C/c1ccc2c(c1)OCO2 (stereo not given)	12
O=C(c1ccccc1)N1CCC2(CC1)OCCO2	6
O=C(c1ccc(CNS(=O)(=O)c2ccc(Br)cc2)cc1)N1CCC2(CC1)OCCO2	17
Cc1cccc(NP(=O)(Oc2ccccc2F)Oc2ccccc2F)c1C	12
COC(=O)c1cn(C(=O)c2cccc3ccccc23)c2ccccc12	16
CCOC(=O)C1CCN(C=C2C(=O)N(C)C(=S)N(C)C2=O)CC1	21

By substructure: the entries above with two or more sulfur atoms.
SMILES	Calb biofilm kill
CSc1ccc(C(=O)C2CCCN(Cc3cnc(SC)nc3)C2)cc1 (stereo not given)	16
COc1ccc(C(=O)C2CCCN(C3CSCCSC3)C2)c(C)c1 (stereo not given)	6

Some of the compounds tested. The share of hits here may be higher or lower than overall.
